Assay outcomes: PubChem, several laboratories
YopH inh: YopH (Yersinia) phosphatase inhibition; inhibition, %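 (about 10 µM by stock and volumes)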; 140,000 compounds, 0.16% hits; fluorescence Ex485/Em525;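 active means inhibition of 50% or more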;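 further: controls were vehicle for no effect and minimum signal wells for full effect; inactives centre near -20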
Arbovirus anti: antivirals against arbovirus infection; arbovirus infection cell-based antiviral screen; inhibition, % at 10 µM; 200,000 compounds, 0.37% hits; AID 1251;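 active means inhibition from about 30%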;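 further: bluetongue infection of BSR cells; cell survival read as ATP light after 72 h; 0% = infected wells without compound and 100% = uninfected wells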
Mtb betalactam: beta-lactam sensitization of Mtb H37Rv | M. tuberculosis H37Rv growth with meropenem, percent inhibition; hits of this screen are not shown here | inhibition, % at 25 µM | 330,000 compounds, 0.27% hits;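 active means about 74% or more and at least 40 points above the plate without the antibiotic, then above 30% in a dose series; inconclusive means first-round hits that could not be retested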;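 further: growth measured after seven days incubation then overnight dye step; 0% = bacteria only wells and 100% = bacteria with antibiotic; twin plates without the antibiotic show which effects depend on it; some results filed as inactive read as strong as hits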
RecA splice inh: Mtb RecA intein splicing inhibition. P9WHJ3. cell-free RecA intein splicing, fluorescence. inhibition, %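 (about 9 µM by stock and volumes)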. 290,000 compounds, 0.75% hits; in the data active means inhibition above about 30%; inconclusive means no clear call, values can overlap the other calls;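 further: 0% = vehicle wells and 100% = reference inhibitor control wells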
Target sequence (P9WHJ3 whole entry, looked up, canonical isoform): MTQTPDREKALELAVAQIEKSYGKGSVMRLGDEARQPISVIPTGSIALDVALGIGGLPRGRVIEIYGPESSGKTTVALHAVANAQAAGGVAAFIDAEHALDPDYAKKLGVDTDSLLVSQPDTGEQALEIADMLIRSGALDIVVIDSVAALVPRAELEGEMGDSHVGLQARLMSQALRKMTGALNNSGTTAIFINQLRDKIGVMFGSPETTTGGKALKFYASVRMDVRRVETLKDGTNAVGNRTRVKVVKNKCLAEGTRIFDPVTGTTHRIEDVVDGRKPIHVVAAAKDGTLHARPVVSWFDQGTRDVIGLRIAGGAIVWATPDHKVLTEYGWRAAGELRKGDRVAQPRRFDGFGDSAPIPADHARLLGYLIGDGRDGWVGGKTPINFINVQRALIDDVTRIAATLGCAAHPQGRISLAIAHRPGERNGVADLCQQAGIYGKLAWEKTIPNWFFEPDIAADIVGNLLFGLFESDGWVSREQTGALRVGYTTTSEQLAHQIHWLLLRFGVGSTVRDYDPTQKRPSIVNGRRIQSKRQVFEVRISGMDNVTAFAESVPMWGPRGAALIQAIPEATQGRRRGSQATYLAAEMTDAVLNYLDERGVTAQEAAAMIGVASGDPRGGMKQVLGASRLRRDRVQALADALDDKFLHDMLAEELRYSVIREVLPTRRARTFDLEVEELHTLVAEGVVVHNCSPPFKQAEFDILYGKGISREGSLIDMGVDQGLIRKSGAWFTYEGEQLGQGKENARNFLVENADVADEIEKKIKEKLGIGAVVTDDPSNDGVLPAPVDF
Mtb growth: M. tuberculosis H37Rv growth inhibitors, H37Rv strain (AID 1626); 220,000 compounds, 0.95% hits; M. tuberculosis H37Rv growth inhibition; higher % means a stronger effect; one-dose inhibition, % at 10 µM; IC50 in µM for titrated hits;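 active means confirmed in a dose series; inconclusive means inhibition above 80% but not taken into the dose series; inactive means below 80% or under 30% at every dose of the series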;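 further: bacteria incubated seven days before Alamar blue readout; 0% = bacteria only wells and 100% = bacteria with antibiotic wells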
Arbovirus anti repeat: recorded beside Arbovirus anti, whose call it bears; inhibition, %; measured here: 10K subset replicate screen; many hits read low in the repeat;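 first of two repeat runs on a subset; 0% = infected and 100% = uninfected wells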
* hit, by the source's call; ? = inconclusive; · = no result given.

SMILES | YopH inh | Arbovirus anti | Mtb betalactam | RecA splice inh | Mtb growth | others
CCCC(=O)Nc1nnc(-c2ccco2)s1 | -39 | -11 | -4 | -2.6 | -1%
O=C(OCC(=O)N1CCN(S(=O)(=O)c2ccc(Cl)cc2)CC1)c1ccc([N+](=O)[O-])o1 | · | 1 | 80 | -2.9 | -1%
Cc1cc(-c2cccs2)n[nH]1 | -25 | 8 | 0 | 1.1 | -1%
COc1ccc(/C(C)=N\NS(C)(=O)=O)c(OC)c1 | -23 | -5 | 3 | -1.1 | -7%
COCCCNC(=S)N/N=C/c1ccccc1O | · | · | 67 | -8.8 | 14%
COc1cc(NC(=O)Cn2ncc(Cl)c(Cl)c2=O)c(C)cc1[N+](=O)[O-] | · | -36 | · | 53* | -2%
CC1CCN(c2cc(N)c(Cl)cc2[N+](=O)[O-])CC1 | -25 | 7 | -1 | 3.6 | -14%
COCCN(C(=O)CCC(=O)Nc1ccccn1)C(C(=O)NCCC(C)C)c1ccc(C)cc1 (configuration not stated) | · | · | -3 | 0.7 | ·
CCN1CCN(c2c(Cl)cccc2NC(=O)c2ccc3c(c2)OCCO3)CC1 | 11 | -11 | -7 | 31* | -4%
O=[N+]([O-])c1ccc(C2CCCC/C2=N/OCc2ccc(F)cc2)c([N+](=O)[O-])c1 (configuration not stated) | -30 | 4 | 0 | 8.7 | 1%
O=C(NC1CC(=O)N(c2ccc(F)cc2)C1)C(=O)c1c[nH]c2ccccc12 (configuration not stated) | · | · | -6 | 0.3 | ·
NC1=NN=C(N2N=C(c3ccccc3)CC2(O)C(F)(F)F)n2ncnc2C1 (configuration not stated) | · | 4 | -2 | · | -1%
O=C(Nc1ccc(S(=O)(=O)NCc2ccco2)cc1)c1ccncc1 | 6 | 13 | -10 | 1.4 | 5%
COc1cc(/C=N/Nc2ccc(Cl)c(C(=O)O)c2)ccc1OC(=O)c1ccccc1F | · | · | -7 | 3.9 | ·
CC(C)C(NC(=O)/C(=C\c1ccco1)NC(=O)c1ccco1)C(=O)O (configuration not stated) | · | · | -6 | -1.2 | ·
O=C(NC(Cc1ccccc1)C(=O)O)/C(=C/c1cccc([N+](=O)[O-])c1)NC(=O)c1ccco1 (configuration not stated) | · | · | -7 | -0.9 | ·
CC(C)C(NC(=O)c1ccc(F)cc1)C(=O)Nc1cccnc1 (configuration not stated) | · | 13 | -5 | -2.5 | -2%
O=C(CSc1ccc(Cl)cc1)OCc1nnc(-c2ccccc2)o1 | -90 | 4 | -1 | 1.2 | 3%
CCOC(=O)c1nnc(-c2cccs2)nc1Oc1ccc(Cl)cc1 | -26 | 3 | 80 | 38* | -10%
N#CCCN(C(=O)CSc1ccc2c(c1)OCCO2)c1ccccc1 | -38 | -6 | -5 | -3.9 | -13%
CCOC(=O)N1CCN(C(=O)c2oc(=O)c3ccccc3c2-c2ccc(C)cc2)CC1 | -17 | 0 | -11 | -0.6 | -6% | Arbovirus anti repeat=1
Cc1cc2[nH]c(=O)c(=O)[nH]c2cc1S(=O)(=O)N1CCC(C)CC1 | · | · | ? | 4.4 | ·
CCN1CCN(C(=O)C2c3cc(OC)c(OC)cc3C(=O)N(C)C2c2ccc(SC)cc2)CC1 (configuration not stated) | -5 | 4 | -7 | -4.5 | -11% | Arbovirus anti repeat=6
Cc1ccccc1NC(=O)C1CCN(C2=NS(=O)(=O)c3ccccc32)CC1 | · | 0 | -8 | -3.0 | -4%
Cc1ccc(-c2nc3ncccc3o2)cc1NC(=O)c1cccnc1 | · | 1 | -5 | -2.0 | -5%
CCCCN(C)C(=O)c1nc2ccccn2c1CN1CCSCC1 | · | -5 | 4 | 0.7 | -4%
O=C(NCCc1nc2ccccc2[nH]1)c1cccc(Br)c1 | · | -2 | -3 | 2.2 | 1%
Cc1ccc(S(=O)(=O)N(C)C)cc1NC(=O)c1cc(-c2ccco2)nc2ccccc12 | · | · | -4 | -0.3 | ·
Cc1cccc(CN2CCc3c(OCC(=O)N4CCCc5ccccc54)cccc3C2=O)c1 | 11 | -6 | 3 | 13 | ·
O=C(NNc1c(Cl)cncc1Cl)c1sccc1Cl | · | · | -9 | 2.6 | -1%
CCOC(=O)C1CCCN(C(=O)c2cc(-c3ccc(C)cc3)on2)C1 (configuration not stated) | -35 | 0 | 1 | 0.7 | -6%
O=C1NC(=O)/C(=C\c2ccc(OCc3cnc(Cl)s3)cc2)S1 | · | -2 | -8 | -0.5 | 3%
COc1ccccc1CNc1ccc(N2CCOCC2)c(C(=O)O)c1 | -35 | 7 | -7 | 0.9 | 0%
CC(C)(C)n1nnnc1C(c1cccs1)N(Cc1ccccc1)Cc1ccco1 (configuration not stated) | -34 | -12 | -13 | 6.6 | -7%
CN(C)/C=C1/Sc2ccccc2C1=O | -31 | 2 | 0 | -1.6 | 3% | Arbovirus anti repeat=6
CCOP(=O)(OCC)C(NC(=O)C(C)C)C(Cl)(Cl)Cl (configuration not stated) | -3 | 11 | -4 | -4.0 | -4%
COc1ccc(Br)cc1C(=O)Nc1cccc2ncccc12 | · | -1 | 15 | 4.0 | 3%
O=C1NC(c2ccccc2)CCC1(Cl)Cl (configuration not stated) | -17 | 8 | 1 | -1.7 | -6%
CN(C)/C=C1\C(=O)N(c2ccc(Cl)c(Cl)c2)CS1(=O)=O | · | -7 | -11 | -4.6 | -6%
Nn1cc(-c2ccccc2)nc1SCC(=O)Nc1cccc(S(N)(=O)=O)c1 | · | · | -1 | -7.5 | -1%
Cc1ccc(Nc2nc(-c3sc(N)nc3C)cs2)cc1 | · | · | 47 | 14 | ·
O=C(c1ccccc1)c1ccc2nc(N3CCN(C(=O)c4ccco4)CC3)c3nncn3c2c1 | -50 | -14 | -1 | -1.5 | 14% | Arbovirus anti repeat=-7
O=C(c1ccccc1)N1CCN(C(=O)c2cc3ccccc3oc2=O)CC1 | · | · | 0 | -21 | ·
Cc1ccc(-c2nc3cccnc3s2)cc1NC(=O)c1ccco1 | -15 | · | 12 | 1.0 | -8%
CN(Cc1ccccc1)S(=O)(=O)c1ccc(C(=O)Nc2nnc(C3CC3)o2)cc1 | -34 | -33 | 56 | 1.5 | ?
CSc1ccc(N/N=C(/C#N)S(=O)(=O)C(C)(C)C)cc1 | · | 20 | 0 | 2.1 | 1%
Cc1nn(CC(C)C)c(Cl)c1C(=O)NC1CCC(C)CC1 (configuration not stated) | · | · | -7 | 1.9 | ·
O/N=C1\CC(O)Cc2nonc21 (configuration not stated) | -12 | 7 | -3 | -1.2 | -2%
O=C(COc1ccc([N+](=O)[O-])cc1)Nc1ccc(N2CCCC2)cc1 | -17 | 4 | 4 | 1.3 | 4%
COc1ccc(S(=O)(=O)Nc2ccc3c(c2)OCO3)cc1Cl | -24 | -3 | -12 | 20 | ·
O=C1N/C(=C/c2cccn2-c2ccccc2)C(=O)N1Cc1ccccc1F | -22 | -3 | 1 | -1.7 | 6%
CCCN1CCN(c2ncnc3c2nnn3Cc2ccccc2)CC1 | -48 | -25 | 3 | -1.8 | ·
CC(C)(C)c1csc(NC(=O)Cn2c(=O)oc3ccccc32)n1 | -55 | -6 | 15 | · | 10%
Cc1cc(NC(=O)C2C3C(=O)N(Cc4ccc(Cl)cc4)C(C(=O)NC(C)(C)C)C34C=CC2(C)O4)no1 (configuration not stated) | 20 | 0 | -6 | 1.2 | ·
COc1ccc(/C=C2/NC(=O)N(CC(=O)Nc3cccc(C)c3)C2=O)cc1O | · | 7 | 1 | 0.0 | 1%
Cc1ccc(N(CC(=O)NC2CCCC2)C(=O)Cn2nnc(-c3ccccc3F)n2)cc1 | · | · | -1 | 2.8 | ·
Cc1c(OC(C)C(=O)N[C@H](C(=O)O)c2ccccc2)ccc2c3c(c(=O)oc12)CCCC3 (some centres not stated) | · | · | 3 | -2.4 | ·
CC(=O)Nc1ccc(NC(=O)CN(c2cccc([N+](=O)[O-])c2)S(C)(=O)=O)cc1 | · | 0 | -1 | -0.7 | 1%
O=C(Nc1ccccc1C(=O)Nc1ccccc1)c1cccs1 | · | · | -4 | -3.4 | ·
CCOc1cccc(NC(=O)c2cnccc2C(F)(F)F)c1 | · | · | -4 | -1.3 | ·

Not a retest: 3 of the compounds above.
SMILES | YopH inh | Arbovirus anti | Mtb betalactam | RecA splice inh | Mtb growth | others
CC(=O)Nc1ccc(NC(=O)CN(c2cccc([N+](=O)[O-])c2)S(C)(=O)=O)cc1 | · | 0 | -1 | -0.7 | 1%
O=C(Nc1ccccc1C(=O)Nc1ccccc1)c1cccs1 | · | · | -4 | -3.4 | ·
CCOc1cccc(NC(=O)c2cnccc2C(F)(F)F)c1 | · | · | -4 | -1.3 | ·

The main list resumes with the 5 entries that preceded the break.
SMILES | YopH inh | Arbovirus anti | Mtb betalactam | RecA splice inh | Mtb growth | others
Cc1ccc(N(CC(=O)NC2CCCC2)C(=O)Cn2nnc(-c3ccccc3F)n2)cc1 | · | · | -1 | 2.8 | ·
Cc1c(OC(C)C(=O)N[C@H](C(=O)O)c2ccccc2)ccc2c3c(c(=O)oc12)CCCC3 (some centres not stated) | · | · | 3 | -2.4 | ·
CC(=O)Nc1ccc(NC(=O)CN(c2cccc([N+](=O)[O-])c2)S(C)(=O)=O)cc1 | · | 0 | -1 | -0.7 | 1%
O=C(Nc1ccccc1C(=O)Nc1ccccc1)c1cccs1 | · | · | -4 | -3.4 | ·
CCOc1cccc(NC(=O)c2cnccc2C(F)(F)F)c1 | · | · | -4 | -1.3 | ·
CCOc1ccccc1CN1CCN(Cc2cn(C)nc2-c2ccccc2)CC1CCO (configuration not stated) | · | 3 | 10 | -13 | -2%
O=C(Cn1cnc2ccccc2c1=O)Nc1ccc(S(=O)(=O)N2CCCC2)cc1 | · | 4 | -11 | -2.1 | 5%
COc1cc(OC)cc(C(=O)Nc2ccc(S(=O)(=O)Nc3cc(C)on3)cc2)c1 | -18 | 8 | 15 | 0.3 | 10%
Cc1ccc2nc(-c3ccc(N)cc3)sc2c1 | · | · | 2 | 1.0 | -9%
Cc1cccc(C)c1OCC(O)CNS(=O)(=O)c1ccccc1C(=O)N1CCCCC1 (configuration not stated) | -32 | 9 | 2 | 6.2 | -12%
O=C(Cn1nc(-c2ccccc2)ccc1=O)N1CCCCC1 | · | · | 2 | 1.4 | ·
Cc1cccc(C(C(=O)NCc2ccc(F)cc2)N(C(=O)c2csnn2)C2CC2)c1 (configuration not stated) | · | · | 5 | 2.6 | ·
Cc1cc(C)nc(NC(=O)C(c2ccccc2)c2ccccc2)n1 | -30 | 3 | 2 | -2.1 | 0%
Cc1cc(OCC(=O)N2CCC(O)(c3ccc(Cl)cc3)CC2)c2c(C)cc(=O)oc2c1 | · | · | 1 | 0.8 | ·
Cc1cccc(NC(=O)/C=C/c2ccc([N+](=O)[O-])s2)c1 | 4 | -28 | 100 | -4.3 | <0.39µM*
COc1cccc(C(=O)N=c2sc3cc(S(C)(=O)=O)ccc3n2C)c1 | · | -1 | 0 | -2.7 | 6%
COc1ccc(C2c3[nH]c4ccccc4c3CCN2Cc2cccn2-c2ncccn2)cc1C (configuration not stated) | · | -10 | 89 | 6.6 | 6%
COc1cc([C@H]2[C@@H]3CCCC[C@]3(O)CCN2CC(=O)Nc2ccc(C)cc2C)ccc1O | -54 | 1 | -1 | -4.7 | -5%
Cc1cc(C)n(C(=O)CCNC(=O)c2ccccc2Br)n1 | -48 | 5 | -14 | -2.7 | -4%
CCN(CCC#N)c1ccc(/C=N/Nc2nc(C)cc(=O)[nH]2)c(C)c1 | -38 | -6 | -3 | -3.8 | -8%
O=c1c2oc3ccccc3c2ncn1Cc1ccccc1F | -38 | -3 | -7 | 1.0 | -4%
O=C(CN1CCOCC1)Nc1ccc([N+](=O)[O-])cc1 | · | · | 0 | -0.6 | ·
Cn1c(O)c(C=NC2CCCCC2)c(=O)[nH]c1=S | · | 0 | 4 | 0.4 | -5%
COc1ccc(/C=N/n2cnnc2SCCO)cc1OC | -30 | 0 | -4 | -2.7 | 1%
CCOC(=O)C(CCCOc1cccc(CC)c1)C(=O)OCC | -20 | 3 | 100 | 3.9 | -2%
Cc1nnsc1-c1c(C(=O)Oc2ccccc2)c(C)nn1-c1ccccc1 | · | · | -6 | 1.3 | -8%
CCCn1c(C(C)NC(=O)c2ccccc2)nc2ccccc21 (configuration not stated) | 0 | -2 | · | -1.6 | 0% | Arbovirus anti repeat=-1
O=C(COc1cccc2cccnc12)NNC(=S)Nc1ccccc1 | · | -4 | 22 | 0.3 | -13%
CC(=O)Nc1ccc(-n2nnnc2SCC(=O)NCc2cccs2)cc1 | · | -3 | 0 | · | 8%
Cc1nc(SCC(=O)O)c2oc3ccccc3c2n1 | -43 | 4 | -8 | -1.4 | -3%
Cc1ccc(-n2c(SCC(=O)NCC3CCCO3)nc3ccccc3c2=O)cc1C (configuration not stated) | · | · | 4 | 1.8 | ·

An excerpt; rates above refer to the full screens.
